# Bioassay records from PubChem BioAssay.
# YB-1 expression – YB-1 expression inhibition | U2OS, qRT-PCR YB-1 vs CDIP delta delta Cp, 16 h; stronger effect = higher value; zero = DMSO, each unit about twofold | delta delta Cp (YB-1 minus CDIP) (no concentration beside the values) | 0.37% of 30,000 active | AID 434959;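 active means delta delta Cp rounded down to an integer at or above 3, about 3 SD of DMSO wells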;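 further: higher means less YB-1 transcript or more CDIP transcript relative to DMSO; stock transfer was 100 nL into about 100 µL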
# PD-1 reversal – activators reversing PD-1 mediated T-cell inhibition. primary human CD4 T cells, PD-L1 beads, CellTiter-Glo 96 h. 29,000 tested, under 10 active. activation, % (no concentration beside the values);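 active means replicate mean of 50% or more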;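 further: 0% = median vehicle wells and 100% = positive control; 100 nL library stock added to about 50 µL; numbers are from one replicate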
# MITF inhib – inhibitors of MITF. 0.28% of 37,000 active. TRPM1 promoter luciferase, luminescence, 24 h. AID 2240. inhibition, % (concentration not given with the values);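 active means most replicates at 85% or more, or half of them and the mean; inconclusive means half reach 85% but not the mean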;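 further: human melanocyte line stably carrying TRPM1 promoter luciferase reporter; 0% = vehicle wells and 100% = a positive control; the first replicate is given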
# Shh pathway inh – blocks Sonic Hedgehog signaling; 2.1% of 22,000 active; AID 2313; Shh-LIGHT2 Gli-luciferase reporter, 30 h; inhibition, % (no concentration beside the values);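 active means replicate mean of 65% or more; inconclusive means mean lower but half the replicates past it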;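 further: pathway switched on by Shh-conditioned medium diluted 1 in 25 in low serum; 100 nL library stock added to about 40 µL; 0% = median of neutral wells and 100% = positive control level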
# * = called active by the depositor; ? = inconclusive; nt = no result given; & = joins results of further samples. An excerpt; count on the stated rates, not on these rows.
SMILES,YB-1 expression,PD-1 reversal,MITF inhib,Shh pathway inh
OC[C@H]1O[C@@H](Oc2c[nH]c3ccc(Br)c(Cl)c23)[C@H](O)[C@@H](O)[C@H]1O,-0.362,-1.3,24.9,2.6
CCN1C[C@]2(C)CC[C@H](OC)[C@@]34C2[C@H](O)C([C@@H]13)[C@@]1(OC)C[C@H](OC)[C@H]2C[C@@H]4[C@@H]1[C@H]2O,-0.2,0.3,-13.2,-12.1
COC(=O)C12CC3CC(C(C)O)C1N(CCc1c2[nH]c2cc(OC)ccc12)C3 (stereo not given),-0.284,nt,nt,-56.9
COC(=O)CC1(CC(=O)OC)C(=O)N(C)C(=O)N(C)C1=O,nt,0.8,-7.5,nt
OC[C@H]1O[C@@H](n2cnc3cc(Cl)c(Cl)cc32)C(O)[C@H]1O (stereo not given in full),0.154,4.5,-21.5,39.4
CCN1C[C@]2(C)CC[C@H](O)[C@@]34C2[C@H](OC)C([C@@H]13)[C@@]1(O)C[C@H](OC)[C@H]2C[C@@H]4[C@@H]1[C@H]2O,0.88,-9.2,26.2,-4.4
C/C(CC(c1ccccc1)c1c(O)c2ccccc2oc1=O)=N/O (stereo not given),-1.29,1.6,3.2,nt
CC1=CC(=O)C2=C(C)C[C@H](O)[C@@H]3[C@H](OC(=O)[C@H]3C)[C@@H]12,-0.528,nt,-5.8,27.0
CCCN(CCC)CCc1c[nH]c2ccc(C(N)=O)cc12,-0.472,0.2,-13.5,-17.9
C[C@]12CC[C@H](O)C[C@H]1CC[C@@H]1[C@@H]2CC[C@]2(C)[C@@H](C3=CC(=O)OC3)CC[C@]12O,0.245,nt,40.1,-19.6
C/C=C(\C)C(=O)OC1C(C)=C2C(C1OC(=O)CCCCCCC)C(C)(OC(C)=O)CC(OC(=O)CCC)C1(O)C2OC(=O)C1(C)O (stereo not given),-0.67,-13.9,51.0,101.4*
O=C1NC(=O)N(c2ccccc2)C(=O)/C1=C/c1ccco1,-0.124,-3.3,2.8,nt
COC(=O)C1=COC(C)C2CN3CCc4c([nH]c5cc(OC)ccc45)C3CC12 (stereo not given),-0.0496,0.1,22.4,-16.4
C[C@@H]1C(=O)O[C@H]2[C@H]1CC[C@@]1(C)C=CC(=O)[C@@]3(C)O[C@@]213,3.98*,-5.3,-2.2,17.6
CCN1C[C@]2(COC)[C@H](O)C[C@H](OC)[C@@]34[C@@H]5C[C@]6(O)[C@H](OC(=O)c7ccccc7)[C@@H]5[C@@](OC(C)=O)(C([C@H](OC)[C@H]23)[C@@H]14)[C@@H](O)[C@@H]6OC,0.213,4.3,9.7,22.0
CC(C)Nc1nc(Cl)nc(NC(C)C)n1,-0.402,nt,-17.7,-55.8
O=C(NC1CN2CCC1CC2)c1cccc(Cl)c1 (stereo not given),-0.588,0.6,-24.8,-16.1
C/C1=C/[C@@H](C)C/C=C/[C@H]2[C@@H]3O[C@]3(C)[C@@H](C)[C@H]3[C@H](Cc4c[nH]c5ccccc45)NC(=O)[C@]32C(=O)/C=C\C(=O)[C@@H]1O,0.48,nt,nt,102.3*
CC(=O)c1ccccc1NC(=O)C1C2CCC(O2)C1C(=O)O (stereo not given),nt,-4.5,23.3,nt
CN[C@@H]1C[C@@]2(C)O[C@@H]([C@@H]1OC)n1c3ccccc3c3c4c(c5c6ccccc6n2c5c31)C(=O)NC4,-0.37,nt,100.8*,103.0*

# Not a retest: entries from further up.
SMILES,YB-1 expression,PD-1 reversal,MITF inhib,Shh pathway inh
CCCN(CCC)CCc1c[nH]c2ccc(C(N)=O)cc12,-0.472,0.2,-13.5,-17.9
C[C@]12CC[C@H](O)C[C@H]1CC[C@@H]1[C@@H]2CC[C@]2(C)[C@@H](C3=CC(=O)OC3)CC[C@]12O,0.245,nt,40.1,-19.6
C/C=C(\C)C(=O)OC1C(C)=C2C(C1OC(=O)CCCCCCC)C(C)(OC(C)=O)CC(OC(=O)CCC)C1(O)C2OC(=O)C1(C)O (stereo not given),-0.67,-13.9,51.0,101.4*
O=C1NC(=O)N(c2ccccc2)C(=O)/C1=C/c1ccco1,-0.124,-3.3,2.8,nt

# The main list resumes, repeating the 2 entries before the break.
SMILES,YB-1 expression,PD-1 reversal,MITF inhib,Shh pathway inh
CC(=O)c1ccccc1NC(=O)C1C2CCC(O2)C1C(=O)O (stereo not given),nt,-4.5,23.3,nt
CN[C@@H]1C[C@@]2(C)O[C@@H]([C@@H]1OC)n1c3ccccc3c3c4c(c5c6ccccc6n2c5c31)C(=O)NC4,-0.37,nt,100.8*,103.0*
CC1CCCCCC(=O)c2c(O)cc(O)cc2CC(=O)O1 (stereo not given),0.144,0.6,13.1,-66.5
CC(C)[C@H]1C(=O)N2CCC[C@H]2[C@]2(O)O[C@](NC(=O)[C@@H]3C=C4c5cccc6[nH]cc(c56)C[C@H]4N(C)C3)(C(C)C)C(=O)N12,-0.38,nt,-15.1,-19.5
COc1cc2c(cc1O)CC1c3c(cc(O)c(OC)c3-2)CCN1C (stereo not given),-0.235,nt,20.4,-16.4
CC[C@H]1CN2CC[C@H]1C[C@H]2[C@H](O)c1ccnc2ccc(OC)cc12,1.44,-1.3,4.7,1.6
Cc1ccc(C(C)C)cc1OP1(=O)COc2ccccc2OC1,-0.566,-0.3,-12.7,-5.4
CCOC(=O)CN1C(=O)C2(C(C(=O)OCC)=C(N)OC3=C2C(=O)CC(C)(C)C3)c2ccccc21 (stereo not given),0.0473,3.9,16.3,29.1
O=C(O)Cn1cc(C(=O)c2ccccc2)c2ccccc21,nt,1.2,10.9,nt
O=c1c2ccccc2nc(CSc2ccccn2)n1-c1cccc(C(F)(F)F)c1,nt,0.5,3.9,nt
O=c1[nH]c2ccccc2n1CCCN1CCC(n2c(=O)[nH]c3cc(Cl)ccc32)CC1,0.0693,nt,-16.8,23.9
CO[C@H]1[C@@H](O)[C@@H](C)O[C@@H](OC2CCC3(C)C(CC[C@@H]4[C@@H]3CCC3(C)C(C5=CC(=O)OC5)C(O)CC43O)C2)[C@@H]1O (stereo not given in full),2.11,-15.7,18.7,-10.0
O=c1ccc2cc(O[C@@H]3O[C@H](CO)[C@@H](O)[C@H](O)[C@H]3O)c(O)cc2o1,0.149,nt,10.7,-28.3
CC[C@@H](C)C(=O)O[C@H]1[C@H](O)[C@H]2[C@@H](CN3C[C@@H](C)CC[C@H]3[C@@]2(C)O)C2C[C@]34O[C@@]5(O)[C@@H](OC(=O)[C@](C)(O)CC)CC[C@@]3(C)[C@@H]5[C@@H](OC(C)=O)[C@@H](OC(C)=O)[C@H]4[C@@]21O (stereo not given in full),-0.156,1.9,3.8,8.8
CCOP(=S)(OCC)Oc1nc(Cl)c(Cl)cc1Cl,0.0432,nt,12.7,-5.8
CC1(C)C(C(=O)Nc2ccccc2C#N)C1(C)C,0.0676,0.2,6.1,-37.2
CN1CCCCC1c1ccc(-c2cccnc2)nc1 (stereo not given),-0.231,nt,-11.9,-27.2
CC1=CC2OC3[C@H](O)C[C@@](C)([C@]34CO4)[C@@]2(CO)[C@H](O)C1=O (stereo not given in full),-0.118,-7.9,71.8,40.1
CCOC(=O)c1c(C)n(C2CCCCC2)c2ccc(O)cc12,-0.154,-0.2,-0.8,22.5
COP(=S)(OC)SCn1nnc2ccccc2c1=O,-0.397,nt,-4.1,-41.6
COC(=O)[C@H]1O[C@@H]2C[C@H]3OC(n4cnc5c(N)ncnc54)[C@H](OC)[C@H]3O[C@@]2(O)[C@@H](O)[C@@H]1O (stereo not given in full),0.0966,0.8,8.7,-7.4
COc1ccc(C(=O)N2CCCC2=O)cc1,0.433,0.5,-29.6,7.4
COC(=O)C12CC3CC(C(C)O)C1N(CCc1c2[nH]c2ccc(OC)cc12)C3 (stereo not given),-0.562,0.6,8.9,14.1
C[C@@]12C[C@@H](c3ccoc3)OC(=O)C1CC[C@]1(C)[C@H]2[C@H]2C=C[C@]1(O)C(=O)O2 (stereo not given in full),-0.248,1.9,-14.3,-15.9
COC1CC(OC2CCC3(C)C(CCC4C3CCC3(C)C(C5=CC(=O)OC5)C(OC(C)=O)CC43O)C2)OC(C)C1OC1OC(COC2OC(CO)C(O)C(O)C2O)C(O)C(O)C1O (stereo not given),0.66,-7.4,20.1,3.1
Clc1ccc(C(c2ccc(Cl)cc2)C(Cl)(Cl)Cl)cc1,0.134,nt,0.3,0.3
FC(F)(F)c1cccc(N2CCNCC2)c1,-0.0791&-0.136,nt,-0.8&4.2,8.5&4.9
O=C1NC(=O)C(=Cc2cn(Cc3ccccc3)c3ccccc23)C(=O)N1,-0.367,-2.3,-1.5,-8.0
Cc1ccc(S(=O)(=O)N2CCCCC2)cc1C(=O)Oc1cccc2cccnc12,-0.433,1.2,-27.9,-14.3
CN(C)C(=O)Oc1ccnc(SCc2c(F)cccc2Cl)n1,-0.317,0.6,-25.4,8.8
COC(=O)[C@@]1(O)C[C@@H]2O[C@@]1(C)n1c3ccccc3c3c4c(c5c6ccccc6n2c5c31)C(=O)NC4,0.42,6.2,28.0,60.3
CCC1CN2CCC3(C(=O)Nc4cccc(O)c43)C2CC1/C(=C/OC)C(=O)OC (stereo not given),-0.314,-0.4,6.3,-13.3
O=C1CCCN1CC#CCN1CCCC1,-0.665,2.8,-3.7,4.9
COc1ccc2c3c1O[C@H]1[C@@H](O)C=C[C@H]4C(C2)N(C)CCC341 (stereo not given in full),0.869,nt,nt,3.8
CCOC(=O)c1c(C)n(C(C)C)c2ccc(OC(=O)c3ccccc3)cc12,0.277,-1.6,12.0,-14.4
C[C@]12N[C@H](Cc3ccccc31)c1ccccc12,0.00954&-0.0457,4.3&2.4,7.0&-10.1,-29.1&-50.6
CC(N)Cc1c[nH]c2ccc(OCc3cccs3)cc12 (stereo not given),-1.31,2.7,-1.4,30.6
CC1(C)C(=O)C=C[C@@]2(C)C1C[C@@H](O)[C@]1(C)C2CC[C@@]2(C)[C@H](c3ccoc3)OC(=O)[C@H]3O[C@]321 (stereo not given in full),-0.392,nt,19.3,10.1
COc1ccc(CC2C(=O)OCC2Cc2ccc3c(c2)OCO3)cc1OC (stereo not given),-0.522,1.7,6.5,12.1
C=CCN1CCc2cccc3c2[C@H]1Cc1ccc(O)c(O)c1-3,-0.0765,nt,-8.6,-16.6
COC[C@H]1OC(=O)c2coc3c2[C@@]1(C)C1=C(C3=O)[C@@H]2CCC(=O)[C@@]2(C)C[C@H]1OC(C)=O,0.287,-21.6,39.4,-11.6
CN1C(=O)CCS(=O)(=O)C1c1ccc(Cl)cc1 (stereo not given),-0.105,nt,9.4,3.9
O=C(Cn1cc(C(=O)c2ccccc2)c2ccccc21)Nc1ccc(Br)cc1,nt,-2.1,52.3,nt
COc1ccccc1N1C(=O)NC(=O)C(CCc2ccncc2)(Cc2cccc3ccccc23)C1=O (stereo not given),nt,-4.7,7.1,nt
C/C=C\C(=O)O[C@@H]1C[C@H]2O[C@@H]3C=C(C)C(=O)C[C@]3(C)[C@]1(C)[C@]21CO1,0.983,-8.6,91.9*,65.0*
CC(CCc1ccc(O)cc1)O[C@@H]1O[C@H](CO[C@H]2OC[C@](O)(CO)[C@H]2O)[C@@H](O)[C@H](O)[C@H]1O (stereo not given in full),0.0687,0.9,-5.2,-4.9
O=c1c2ccccc2[se]n1-c1ccccc1,-2.3,-58.4,8.9,?
CC[C@@H](CO)NC(=O)[C@@H]1C=C2c3cccc4[nH]cc(c34)C[C@H]2N(C)C1,-0.0645&-0.228,nt,-1.8&-2.9,-6.5&-118.3
COc1cccc(CNCCc2c[nH]c3ccccc23)c1,0.173,-3.3,12.5,nt
c1cncc([C@H]2CCCCN2)c1,-0.649,nt,0.5,4.2
C=C[C@H]1[C@H](O[C@@H]2O[C@H](CO)[C@@H](O)[C@H](O)[C@H]2O)OC=C2C(=O)OCC[C@H]21,0.0682,nt,nt,29.4
COc1ccc2c(c1OC)CN1CCc3cc4c(cc3C1C2)OCO4 (stereo not given),-0.288,nt,3.2,-17.8
N[C@H](CO)Cc1ccccc1,-0.297,nt,-9.1,-0.2
CC(N)Cc1ccc(O)cc1 (stereo not given),-0.0692,nt,5.6,22.9
COC1CC(O[C@H]2CC[C@@]3(C)C(CCC4C3CC[C@]3(C)C(C5=CC(=O)OC5)CCC43O)C2)OC(C)C1OC1OC(COC2OC(CO)C(O)C(O)C2O)C(O)C(O)C1O (stereo not given in full),0.449,-5.8,9.0,-0.4
CC(=O)OC[C@]12C[C@H](O)C(C)=C[C@H]1O[C@@H]1[C@H](O)[C@@H](OC(C)=O)[C@@]2(C)[C@]12CO2,1.19,-5.2,90.2*,95.8*
N#C[C@@H](OC1OC(COC2OCC(O)C(O)C2O)C(O)C(O)C1O)c1ccccc1 (stereo not given in full),-0.0354,1.2,-3.7,-4.4
O=C(NC(=O)c1c(F)cccc1F)Nc1cc(Cl)c(OC(F)(F)C(F)C(F)(F)F)cc1Cl (stereo not given),0.131,nt,-0.8,14.5
CC(C)c1cc2c(cc1O)[C@@]1(C)CCCC(C)(C)[C@@H]1CC2O (stereo not given in full),-0.128,-1.3,37.7,-35.6
C[C@H]1O[C@@H](O[C@H]2CC[C@]3(CO)C4CC[C@]5(C)[C@@H](C6=CC(=O)OC6)CC[C@]5(O)[C@@H]4CC[C@H]3C2)[C@H](O)[C@H](O)[C@@H]1O[C@@H]1O[C@H](CO)[C@@H](O)[C@H](O)[C@H]1O (stereo not given in full),-0.833,-14.0,10.7,-18.6
COC(=O)NC(=S)Nc1ccccc1NC(=S)NC(=O)OC,0.115,nt,-6.5,-25.3
